Ba CapD inh – blocks the Bacillus anthracis CapD enzyme; purified CapD enzyme, fluorescence intensity read-out; stronger effect = lower value; some hits fall short of the stated cut; z-score (test concentration not listed); actives 0.23% (n = 140,000); AID 492967;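 active = z-score under -4 in either of two replicates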;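 also: stock transfer was 100 nL into about 40 µL; score is relative to mean and spread of the plate; one replicate is shown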
AID504770 – E. coli YBA685 growth inhibition, screen for V. cholerae RctB inhibitors. E. coli YBA685 rctB-dependent plasmid, OD600 growth, 3 h; stronger effect = lower value. z-score (test concentration not listed). actives 0.27% (n = 130,000). AID 504770;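 active = z-score under -2 on both plates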;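 also: wells of about 30 µL received 100 nL stock; score is relative to mean and SD of the test wells; the first replicate is given; strong numbers were not always called active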
* hit, by the source's call; . = not tested or not shown; & = joins results of further samples. Some of the compounds tested; rates above refer to the full screens.

Compound | AID504770 | Ba CapD inh
Cc1cc(C)nc(N2NC(c3ccccc3)C(C#N)=C2O)n1 (centres undefined) | 0.1 | .
O=C(C1CCN(Cc2ccccc2)CC1)N1CCN(c2ccccc2F)CC1 | -1.1 | .
Cc1ccnc(SCC(=O)/C=C2\N(C)c3ccccc3C2(C)C)n1 | 0.35 | .
CC12CN(Cc3ccccc3)CC(C)(CN(Cc3ccccc3)C1)C2=O | -0.95 | -0.14
Cn1cc(CCC(=O)NC2CCCCC2)c2ccccc21 | 1.9 | -1.1
CC[C@H]1C(=O)OC[C@@H]1Cc1cccn1C | . | -0.34
N#Cc1ccc(NC(=O)C2CCN(c3nccc(C(F)(F)F)n3)CC2)cc1 | 1.6 | 0.91
COc1ccc(C(=O)CN2C3=NCCCN3c3ccccc32)cc1 | . | 0.85
CCCCN1C(=O)CC(C(=O)O)C1c1ccc(OC)cc1 (centres undefined) | 0.6 | .
CC1(C)CC(=O)C2=C(C1)OC1=C(C(=O)CC(C)(C)C1)C2c1cccc(OCC(=O)N2CCCCC2)c1 | . | -0.54
N=C1/C(=C\c2cccn2Cc2ccccc2)C(=O)N=C2SC(N3CCCCC3)=NN12 | -0.2 | -0.52
N#CC1(c2ccccc2)CCCN1C(=O)c1ccco1 (centres undefined) | -0.35 | .
C=CCn1c(=O)c(C(=O)NCc2cccnc2)c(O)c2ccccc21 | -0.75 | 14
O=S1(=O)CC(S(=O)(=O)c2ccccc2)c2ccccc21 (centres undefined) | -0.75 | 0.23
O=S(=O)(c1ccccc1)c1cnc(-c2ccccc2)nc1N1CCCCC1 | . | -0.17
CSc1sc(-c2nc(C)cs2)c(C)c1-c1ccn(S(C)(=O)=O)n1 | 0 | 12
O=C(CSCc1ccc(F)cc1)N1CCOCC1 | 0.95 | .
CC(=O)c1cccc(NC(=O)C2COc3ccccc3O2)c1 (centres undefined) | . | -0.24
CC(=O)Nc1ccc(Oc2nc(C)cc(C)n2)cc1 | 0.7 | .
C/C(=N/O)c1cc(C(C)(C)C)cc2c1CCC2(C)C | . | 0.27

Random excerpt: 2 entries already listed.
Compound | AID504770 | Ba CapD inh
O=C(CSCc1ccc(F)cc1)N1CCOCC1 | 0.95 | .
N#CC1(c2ccccc2)CCCN1C(=O)c1ccco1 (centres undefined) | -0.35 | .

Other structures follow.
Compound | AID504770 | Ba CapD inh
O=c1c2cc3c(=O)n(CC4CCCO4)c(=O)c3cc2c(=O)n1CC1CCCO1 (centres undefined) | -0.35 | 0.99
O=C(NCCn1cc(SCC(=O)N2CCCCC2)c2ccccc21)c1ccccc1F | . | 0.27
CCOC(=O)/C(C#N)=C/c1cn(-c2ccccc2)nc1-c1cccnc1 | -0.45 | .
N=C1C(c2nc3ccccc3[nH]2)=C(O)CN1c1ccccc1 | 1.8 | .
Cn1c(C(=O)N2CCN(c3ccccc3F)CC2)cc2c(=O)[nH]c3ccccc3c21 | -0.65 | 1.1
Cc1nnc(-n2nc(-c3ccccc3)cc2N)[nH]c1=O | -0.75 | -0.73
CCNc1ccccc1-c1nc2ccccc2[nH]c1=O | 0.25 | 0.15
CC(C)C(NS(=O)(=O)c1cccs1)C(=O)N(C)Cc1ccccc1 (centres undefined) | 0.8 | 0.54
O=C(O)c1ccccc1OCc1nc2ccccc2s1 | 0.1 | .
Cc1cccc(N(CC(=O)Nc2ccc3c(c2)oc2ccccc23)S(=O)(=O)c2ccccc2)c1 | 0.4 | 8.5
COc1cccc(C(CC(=O)c2ccc(Cl)cc2)C(C#N)C#N)c1 (centres undefined) | -0.75 | 0.86
N#Cc1c(F)cccc1NCCCn1ccnc1 | -1.1 | 62
Cc1cccc(C(=O)N[C@H](C(=O)Nc2nc3ccccc3[nH]2)C(C)C)c1 | 0.35 | .
O=C(Nc1ccc2nc(SCC(=O)N3CCOCC3)sc2c1)c1ccc(Cl)c(Cl)c1 | . | -0.1
O=C(c1cc(O)ccc1O)c1coc2ccc(O)cc12 | 0.55 | -1.4
COc1cccc(NC(=O)C2CC(=O)n3cnnc3S2)c1 (centres undefined) | -0.1 | -0.58
CCc1ccccc1NC(=O)CN1CCN(Cn2c(=O)oc3ccccc32)CC1 | -0.35 | .
CCOC(=O)CC(=O)c1sc(SC)nc1N | 1.1 | 1.4
Cc1ccc(S(C)(=O)=O)cc1 | -0.9 | 0.28
CCCc1ccc(C2=C(C)SC3=NS(=O)(=O)CCN32)cc1 | -0.05 | .
Cc1nc(N2CCCCC2C)c2c(C)c(C(=O)Nc3ccc4c(c3)OCO4)sc2n1 (centres undefined) | . | -1.1
O=C(CSc1ccccc1Cl)NC12CC3CC(CC(C3)C1)C2 | -1.5 | -0.76
CN(C)CC/C=C1\c2ccccc2Sc2ccc(Cl)cc21 | 0.2 | -0.11
Cc1nc(SCC(=O)OCN2C(=O)c3ccccc3C2=O)n[nH]1 | -0.3 | -0.005
CCN1CCN(c2cc(-c3ccccc3)c3ccccc3n2)CC1 | -0.3 | 28
O=C(O)C1=C(C(=O)Nc2cccc(C(F)(F)F)c2)CCCC1 | -0.05 | .
O=C(O)COc1ccc(C=Nc2ccc3c(c2)OCO3)cc1Cl | 0.05 | .
NC12CC3CC(C1)CC(C(=O)O)(C3)C2 | -0.75 | 0.51
O=S(=O)(c1cc(Cl)c(Cl)cc1Cl)N1CCN(Cc2ccccc2)CC1 | . | -0.44
Cc1cc(/C=C/C(=O)O)c(C)n1-c1ccnn1C(C)C | 1.1 | .
COc1ccc(-n2nc3cc(C)c(N)c(Br)c3n2)cc1 | 0 | 11
Cc1ccc(C(=O)N2CCCCC2C(=O)O)o1 (centres undefined) | -0.7 | 0.68
NS(=O)(=O)c1ccc(CCNC(=O)CC2(CC(=O)O)CCCCC2)cc1 | 0.2 | .
N#CC1CCn2c(cc3sccc32)C1=O (centres undefined) | -0.95 | .
O=C(Nc1cccc(Cl)c1)Nc1ncc2c(n1)-c1ccccc1CC2 | . | 3.8
COc1cccc(CCNS(=O)(=O)c2ccc(Br)cc2)c1 | . | -0.73
C=CCN1C(=O)C(C)(C)Nc2ccccc21 | 1.2 | 0.04
CC(=O)N1CCN(C(=O)c2ccc(-n3cccc3)cc2)CC1 | . | 0.36
O=C1C2=C(Nc3[nH]c(=O)[nH]c(=O)c3C2c2cccs2)c2ccccc21 (centres undefined) | 0.35 | .
Cc1c2cnn(CC(=O)NCc3ccco3)c(=O)c2c(C)n1Cc1ccccc1 | 0.45 | 1.6

An excerpt from above in order of count of non-hydrogen atoms, ascending.
Compound | AID504770 | Ba CapD inh
Cc1ccc(C(=O)N2CCCCC2C(=O)O)o1 (centres undefined) | -0.7 | 0.68
COc1ccc(-n2nc3cc(C)c(N)c(Br)c3n2)cc1 | 0 | 11
O=C(CSc1ccccc1Cl)NC12CC3CC(CC(C3)C1)C2 | -1.5 | -0.76
CCN1CCN(c2cc(-c3ccccc3)c3ccccc3n2)CC1 | -0.3 | 28
O=S(=O)(c1cc(Cl)c(Cl)cc1Cl)N1CCN(Cc2ccccc2)CC1 | . | -0.44

Additional compounds
Compound | AID504770 | Ba CapD inh
O=C(Oc1ccc(C2SCCS2)cc1)C1CCCCC1 | 2 | -0.41
CCCCN(C(=O)c1cccc(S(=O)(=O)N2CCOCC2)c1)c1c(N)n(CCC)c(=O)[nH]c1=O | 0.35 | .
Cc1ccc(-c2nnn(CC(=O)c3ccc4[nH]c(=O)[nH]c4c3)n2)cc1 | 0.05 | .
CC(=O)C1=C(C)Nc2ncnn2C1c1ccc2c(c1)OCO2 (centres undefined) | . | -0.69
O=C(c1cccc(C(F)(F)F)c1)N(C(=O)c1cccc(C(F)(F)F)c1)c1nccc2cccnc12 | . | -0.41
CC1CC(C)CN(S(=O)(=O)c2ccc3[nH]cc(C(=O)O)c(=O)c3c2)C1 (centres undefined) | 0.4 | 11
CSC(=NC(C)(C)CO)Nc1c(C)cccc1C | . | -0.26
CCOC(=O)N1CCC2(CC1)C(C#N)=C(N)OC1=C2C(=O)CCC1 | 0.95 | -1.2
COc1ccccc1C(=O)N1c2ccccc2Sc2ccccc21 | . | 0.26
NC(=O)c1c(NC(=O)C2COc3ccccc3O2)sc2c1CCCC2 (centres undefined) | -0.25 | 1.8
O=C(COC(=O)Cc1ccc(F)cc1)Nc1ccccc1 | 0.35 | .
O=C(CSc1nc2ccccc2[nH]1)Nc1cc(NC(=O)CSc2nc3ccccc3[nH]2)cc(C(=O)O)c1 | . | -0.83
Oc1cncc(Cc2ccccc2)c1 | -0.55 | 0.71
Cn1c(C(=O)N2CCN(C(c3ccccc3)c3ccccc3)CC2)cc2cc(S(C)(=O)=O)ccc21 | . | -0.38
Cc1ccc(C)n1-c1ccc(C(=O)NCC(F)(F)F)cc1 | 0.35 | .
CCCCn1c(C)nc2cc(S(=O)(=O)N3CCOCC3)ccc21 | -1.1 | .
COC(=O)CCNc1nc(-c2ccc(Br)cc2)nc2ccccc12 | . | 3
Cc1ccc(NC(=O)N(C)C)cc1Cl | . | 0.2
CCS(=O)(=O)N1N=C(c2ccccc2)CC1c1cc2cc3c(cc2nc1Cl)OCCO3 (centres undefined) | 0.15 | 18
COC(OC)c1ccnc(SCc2ccccc2Cl)n1 | 0.25 | 0.09
CSc1ncc(Nc2nc(C)cs2)cn1 | 0.1 | -0.18
O=C(CSc1nccc(=O)[nH]1)Nc1cccc2ccccc12 | -0.35 | .
O=C(NC(=O)c1c(Cl)cccc1Cl)Nc1nc2cc(Cl)ccc2s1 | . | -0.85
O=C(O)c1ccc(C(F)(F)F)s1 | -1.2 | -0.34
CNC(=O)c1cc(-c2ccc(OC)c(S(=O)(=O)N3CCOCC3)c2)on1 | 0.75 | 0.55
Cc1oc(C(=O)O)cc1COc1ccc2c(-c3ccccc3)cc(=O)oc2c1 | -1.4 | 4.9
CC1=C(C(=O)OCc2ccccc2)C(c2ccoc2)C(C#N)=C(N)S1 (centres undefined) | 0.45 | -0.13
COc1cc(/C=C2/C(=O)N(c3cccc(Br)c3)N=C2C)ccc1OC(=O)c1cccs1 | . | -0.085
COc1ccc(N=Cc2c(C)c(C#N)c3[nH]c4ccccc4n3c2=O)c(OC)c1 | -0.15 | -0.36
CC1CN(C(=O)C2CCN(S(=O)(=O)c3ccccc3)CC2)CC(C)O1 (centres undefined) | . | -0.12
Cc1sc2ncnc(SCc3ccccc3)c2c1C | -0.35 | -0.04
Cc1[nH]nc2c1C(Cc1ccccc1)C(C#N)=C(N)O2 (centres undefined) | -0.5 | .
O=C1CSc2nnc(-c3ccccc3)n21 | 0.3 | -1.5
S=c1nc(-c2cccs2)cn[nH]1 | 1.6 | .
CCN(CC)c1nc2c(S(=O)(=O)c3ccc(C(C)C)cc3)nnn2c2ccsc12 | -0.45 | 0.03
CC(=O)N1CCC(N(C(=O)COc2ccccc2C(=O)NCc2cccc(C(F)(F)F)c2)C2CC2)CC1 | . | -0.49
O=C(Nc1ccc(F)cc1F)N1CCC2(CC1)C(=O)NCN2c1ccccc1 | 0.1 | 0.07
CCCN(C)S(=O)(=O)c1cccc2c(N)cccc12 | -1.1 | -0.73
CC(=O)c1ccc(-c2ccc(F)c(Cl)c2)o1 | . | 4.6
Cc1nc2sc3c(c2c2nncn12)CCCC3 | 1.1 | -0.21
CS(=O)(=NS(=O)(=O)c1ccccc1Cl)c1ccc(C(F)(F)F)cn1 (centres undefined) | -0.55 | -0.48
O=C(NCCn1ccc2ccccc21)c1cc(C(F)(F)F)cc(C(F)(F)F)c1 | 0 | 8
O=S(=O)(Cc1ccc(Cl)cc1)Cc1nc(-c2ccsc2)no1 | 0.05 | 0.095
Cc1cc(C)c(C(=O)COC(=O)CCn2c(C)csc2=O)cc1C | 0.4 | .
CCn1cnc2c(=O)oc3ccc(S(=O)(=O)N4CCN(c5cc(Cl)ccc5C)CC4)cc3c21 | 0.15 | 0.045
Cc1cccc2nc3c(nc12)C(=O)c1ccccc1C3=O | -0.2 | 0.065
COC(=O)c1c(C)[nH]c(C)c1-c1ccccc1 | 1.5 | 0.2
S=C(NCc1cccs1)Nc1cc(Cl)cc(Cl)c1 | . | 0.15
CC(C)C1C(C#N)=C(N)Oc2c1c(=O)oc1ccccc21 (centres undefined) | 0.25 | 0.4
CCOc1ccc2[nH]c(C)cc(=O)c2c1 | -0.35 | 78
O=C1OC(c2ccccc2)=N/C1=C1\OC(=O)c2ccccc21 | -0.35 | .
CC(C)(C)c1ccc(OCCNC(=O)c2cccc(Br)c2)cc1 | -0.3 | 0.025
C=CCn1c(NC(=O)C2CCCCC2)nc2ccccc21 | . | -0.48
O=S(=O)(c1ccc(SCc2ccccc2C(F)(F)F)nc1)N1CCCCC1 | 1.2 | .
COc1ccc(NC(=S)N2CCCN(Cc3ccc(F)cc3)C2)cc1 | -0.6 | 0.17
C=CCN1C2=NCCCN2c2ccccc21 | -0.3 | .
CCn1c(C(=O)NC(C)CCc2ccccc2)cc2sccc21 (centres undefined) | -0.2 | 1.1
CC1(C)CC(=O)C2=C(C1)Nc1cc(C(=O)c3ccccc3)ccc1NC2c1ccc2c(c1)OCO2 (centres undefined) | . | 0.67
CC(C)n1c(=S)[nH]c2c1c(=O)[nH]c(=O)n2C | -0.3&0 | -0.12
COC(=O)COc1cccc2c1ccc1c3c(c(=O)oc12)CCCC3 | 0.05 | 0.03

Going on with the list.
Compound | AID504770 | Ba CapD inh
CC1(C)CC(=O)C2=C(C1)OC1=C(C(=O)CC(C)(C)C1)C2c1ccccc1OCc1ccc(Cl)cc1 | . | -0.44
CCCc1nc2c3ccccc3ncn2n1 | -5.5* | .
Fc1cccc(Cl)c1C=Nc1cccc(-c2ncon2)c1 | -2.3 | -0.54
Cc1cccn2c(=O)c3cc(C(=O)NC(C)c4ccccc4)c(=N)n(CCCN4CCOCC4)c3nc12 (centres undefined) | 0.25 | 8.9
Fc1ccccc1Nc1n[nH]c(=S)s1 | . | -0.77
